Compound activity from PubChem BioAssay.
CSC inhib – cancer stem cell viability inhibitors, primary screen, luminescence | inhibition, % at 7.5 µM | 300,000 compounds, 1.1% hits | AID 2717, 2010 | cancer stem cell-like cells viability;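 active means mean at 75% or more and at least half the replicates too; inconclusive means mean and replicates disagree; tested in HMLE shEcad cells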;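 further: 0% = median of negative and 100% = median of positive control wells; the first replicate is given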
eIF4H FP inh – human eIF4H binding inhibitors, primary screen, translation initiation inhibitor project, biochemical, uHTS, fluorescence polarization | Eukaryotic translation initiation factor 4H (Homo sapiens), Q15056 | eIF4H fluorescence polarization binding assay | inhibition, % at 35 µM | 290,000 compounds, 0.94% hits | AID 2012, 2009;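 active means 50% or more with normal probe brightness, or confirmed in later tests; inconclusive means above 50% with abnormal brightness, or retests that disagree; inactive means below 50% or failed in later tests; about a fifth of its hits are not listed in these tables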;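 further: calls also rest on retests at 20 µM and on dose response follow-up; 0% = protein and probe with vehicle and 100% = probe without protein; strong numbers were not always called active; many hits fall short of the cut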
Rce1 inhib – yeast Rce1p protease inhibitors, primary screen, biochemical, fluorescence, cell-free homogeneous; CAAX prenyl protease 2 (Saccharomyces cerevisiae (strain ATCC 204508 / S288c)), Q03530; yeast membranes, quenched prenylated peptide cleavage fluorescence; calls only; 290,000 compounds, 0.27% hits; AID 2563, 2010;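 active means fall in fluorescence gain of 50% or more versus controls, with final raw signal at or below 3038400; inconclusive means same 50% fall but final raw signal above 3038400; inactive means fall in fluorescence gain under 50%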;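 further: plate controls were neutral control wells for no effect and wells lacking membranes for full effect; tested at 10 µM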
Target sequence (Q03530 whole entry, looked up): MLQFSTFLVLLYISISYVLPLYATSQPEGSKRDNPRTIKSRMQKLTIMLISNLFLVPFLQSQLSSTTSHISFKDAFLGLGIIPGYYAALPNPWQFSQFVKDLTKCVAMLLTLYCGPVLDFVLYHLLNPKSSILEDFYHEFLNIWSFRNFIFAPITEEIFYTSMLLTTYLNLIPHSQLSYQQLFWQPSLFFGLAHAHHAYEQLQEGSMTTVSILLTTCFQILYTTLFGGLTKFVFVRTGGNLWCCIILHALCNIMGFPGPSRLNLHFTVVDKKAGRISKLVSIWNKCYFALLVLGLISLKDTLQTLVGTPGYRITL
PABP polyA inh – PABP poly(A) RNA binding inhibitors, primary screen, biochemical, fluorescence polarization, uHTS | Polyadenylate-binding protein 1 (Homo sapiens), P11940 | inhibition, % at 35 µM | 290,000 compounds, 1% hits | AID 2014, 2009;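 active means 50% or more with normal probe brightness, or confirmed in later tests; inconclusive means above 50% with abnormal brightness, or retests that disagree; inactive means below 50% or failed in later tests; about a fifth of its hits are not listed in these tables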;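 further: calls also rest on retests at 20 µM and on dose response follow-up; controls were probe without protein and protein plus probe with vehicle; some compounds called inactive have numbers as strong as hits; many hits fall short of the cut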
MT1-MMP act inh – blockers of MT1-MMP proenzyme processing, primary screen, HT1080 RFP-PRO-GFP cells, GFP/RFP fluorescence; 360,000 compounds, 0.061% hits; GFP/RFP ratio fluorescence, overnight; percent of plate control window, DMSO zero; GFP/RFP ratio change, % at 20 µM; Matrix metalloproteinase-14 (Homo sapiens), P50281;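 active means GFP/RFP ratio change of at least 30% with cell ATP level not reduced by more than half and red fluorescence within 50% of control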; further: strong numbers were not always called active
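Assay system: HT1080 RFP-PRO-GFP cells. Benchmarks: DMSO vehicle wells and RFP-L50D-GFP reporter cell wells. Times: overnight cell settling, then overnight compound exposure, 37 °C, 5% CO2. Compound: 20 µM single dose, 1% DMSO. Read-out basis: GFP/RFP fluorescence ratio.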
HIV Env fusion – inhibitors of HIV-1 Env-driven cell-cell fusion, primary screen, HeLa-JRFL effector, CEM21 target cells, luciferase | 360,000 compounds, 1.1% hits | inhibition, % at 12.3 µM;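 active means mean replicate inhibition score of at least 50 and every replicate individually at or above 50; inconclusive means only one of the two criteria met; inactive means mean below 50 and not all replicates reaching 50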;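 further: 0% = plate neutral controls and 100% = maraviroc near 300 nM; one replicate is shown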
UUG fidelity – modulators of yeast start codon fidelity, primary screen, whole organism, S. cerevisiae, single point, plate reader. activity score, % at 18.7 µM. 350,000 compounds, 0.13% hits. AID 602363, 2012. S. cerevisiae UUG-firefly luciferase reporter, luminescence/redox ratio;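 active means replicate mean at a twofold rise or more, about +100% in these data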;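 further: firefly luciferase made from a UUG start codon reports start codon fidelity; reporter light over untreated wells divided by growth signal over untreated wells; some hits fall short of that in this replicate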
eIF4H FP inh retest – second read-out of eIF4H FP inh, no call of its own (marks repeat the call); inhibition, %; compound at 20 µM; confirmation average;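 mean of two retest wells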
PABP polyA inh retest – recorded beside PABP polyA inh, whose call it bears; inhibition, %; compound at 20 µM; confirmation repeats;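 mean of two retest wells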
MT1-MMP act inh RFP – also measured in MT1-MMP act inh; calls as there; RFP signal change, %; measured here: RFP expression control read;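 0 = vehicle wells; hits needed this value within 50% of zero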
* hit, by the source's call; i = inactive; ? = inconclusive; / = not tested or not shown; + = active, no number; & = joins results of further samples; [ ] = another dose, or the depositor's remark. Some of the compounds tested, so the mix of outcomes need not match the whole.

SMILES	CSC inhib	eIF4H FP inh	Rce1 inhib	PABP polyA inh	MT1-MMP act inh	MT1-MMP act inh RFP	HIV Env fusion	UUG fidelity	others
CCCOc1ccc(F)cc1-c1cc(C(=O)NC2CCCCC2)[nH]n1	/	/	/	/	-4	-13	16	-36
Cn1c(SCC(=O)NCC2COc3ccccc3O2)nnc1C(F)(F)F (centres undefined)	-17	/	/	/	0	6	4	-9
O=C(O)/C=C1\CCCc2ccccc2C1O (centres undefined)	-5	/	/	/	1	3	11	-2
Cc1ccc(NC(=O)CN2C(=O)c3ccccc3C2=O)nc1	-4	11	i	-2	-1	-2	0	/
CN1c2ccccc2-c2nc3ccccc3n2C1c1ccco1 (centres undefined)	-5	-4	i	16	-9	-3	12	-9
CC(=O)O[C@H]1[C@H](C)OC=C[C@@H]1OC(C)=O	10	-2	i	7	1	0	9	-20
O=C(O)C1CC=CCC1C(=O)NNc1ccccc1 (centres undefined)	-9	-1	i	0	3	3	-15	/
CCc1ccc(N2C(=O)c3sc4nnc(-c5ccccc5)c(=O)n4c3C2=O)cc1	-14	-4	i	3	-2	1	/	-3
Cc1cc(C#Cc2c(-c3ccccc3)n(C)c3ccccc23)ccc1F	24	?	i	49	-3	-5	?	-18
COc1cccc(CNC(=O)C2CCCN2S(=O)(=O)c2ccc3c(c2)C(C)(C)C(=O)N3C)c1 (centres undefined)	2	6	i	-8	0	4	-14	-21
Cc1nc2c3ccccc3n(Cc3ccccc3F)c2s1	28	-7	i	14	-1	-1	-4	-23
CCCCC1CCC(C(=O)Nc2ccccc2)CC1 (centres undefined)	-4	0	i	0	3	1	-28	/
Cc1ccc(S(=O)(=O)N2CCOCC2)cc1C(=O)NC(=S)N1CC(C)OC(C)C1 (centres undefined)	-7	-5	i	2	6	2	-5	-13
CCC(CC)=C(C#N)C(=O)NC1CCCCC1	-9	4	i	7	1	3	/	/
CCc1nnc(NC(=O)C2CC(=O)N(CCc3ccccc3)C2)s1 (centres undefined)	-14	0	i	2	-5	-5	-40	/
C(=N\C(/N=C/c1ccco1)c1ccco1)/c1ccco1	3	103*	i	108*	-3	5	4	-2
Cc1ccc(C(=O)Nc2ccc(NC(=O)c3cccs3)cc2)c(C)c1	/	5	i	6	1	-1	0	-18
CCCn1c(=O)[nH]c(=O)c2c1nc(-c1cccs1)n2CCOC	-11	16	i	-4	1	0	-4	-6
COc1cc(C(=O)Nc2ccccc2NC(=O)c2cc(OC)c(OC)c(OC)c2)cc(OC)c1OC	-5	0	i	-1	2	-1	8	4
CC1CCN(S(=O)(=O)c2ccc(S(=O)(=O)NCC(=O)C(C)(C)C)cc2)CC1	-1	-9	i	3	-4	-2	19	-14
O=c1[nH]c2cc3c(cc2cc1CN(CCO)S(=O)(=O)c1ccccc1Cl)OCCO3	6	-4	i	6	6	3	/	-5
Cc1cc(NC(=O)CN2C(=O)CC(c3ccco3)Sc3ccccc32)no1 (centres undefined)	-8	-5	i	-3	0	-1	/	-4
COc1cc2c(cc1OC)CN(C(=O)CCCOc1ccc(Cl)cc1Cl)CC2	-2	14	i	-9	2	-4	-5	-5
O=C(CNc1cccc(Cl)c1)c1ccc(Cl)cc1	-12	8	i	5	-5	-2	-20	18

No new results follow: 5 of the compounds above.
SMILES	CSC inhib	eIF4H FP inh	Rce1 inhib	PABP polyA inh	MT1-MMP act inh	MT1-MMP act inh RFP	HIV Env fusion	UUG fidelity	others
CC1CCN(S(=O)(=O)c2ccc(S(=O)(=O)NCC(=O)C(C)(C)C)cc2)CC1	-1	-9	i	3	-4	-2	19	-14
O=c1[nH]c2cc3c(cc2cc1CN(CCO)S(=O)(=O)c1ccccc1Cl)OCCO3	6	-4	i	6	6	3	/	-5
Cc1cc(NC(=O)CN2C(=O)CC(c3ccco3)Sc3ccccc32)no1 (centres undefined)	-8	-5	i	-3	0	-1	/	-4
COc1cc2c(cc1OC)CN(C(=O)CCCOc1ccc(Cl)cc1Cl)CC2	-2	14	i	-9	2	-4	-5	-5
O=C(CNc1cccc(Cl)c1)c1ccc(Cl)cc1	-12	8	i	5	-5	-2	-20	18

(listing goes on)
SMILES	CSC inhib	eIF4H FP inh	Rce1 inhib	PABP polyA inh	MT1-MMP act inh	MT1-MMP act inh RFP	HIV Env fusion	UUG fidelity	others
Cc1cc(C(=O)N/N=C/c2ccc(-c3ccc(C)c(Cl)c3)o2)n[nH]1	-2	0	i	-9	-1	-4	6	-15
CSCCC(NC(=O)c1ccco1)C(=O)NNC(=O)c1n[nH]c(=O)c2ccccc12 (centres undefined)	8	/	/	/	-4	-3	/	1
Nc1nc(-c2cccnc2)nc(N2CCCCC2)n1	-12	1	i	-4	-1	-2	/	-9
COc1ccc(-c2c(C)c3cc(O)ccc3oc2=O)cc1	-6	2	i	4	0	-5	-38	-8
O=C(Cc1ccc2c(c1)OCO2)NN=Cc1ccc([N+](=O)[O-])o1	-1	/	/	/	-3	-11	-11	-11
CCN(CC)C(=O)C1CCCN(c2ccccc2[N+](=O)[O-])C1 (centres undefined)	-5	-4	i	0	5	11	2	/
CC(C)(C)Nc1nc(-c2ccc3c(c2)CCN3C(=O)C2CC2)cs1	2	3	i	4	4	-5	-94	-8
Cc1nnc(SCC(=O)NNC(=O)c2ccc(F)cc2)n1Cc1ccccc1	-8	/	/	/	0	5	?	-6
CCCNC(=O)c1ccc(S(N)(=O)=O)cc1	-10	1	i	0	-3	2	7	-11
COc1ccc(CNC(=O)[C@H](C)NC(=O)C2CCN(C(=O)[C@H](CCSC)NC(=O)OC(C)(C)C)CC2)cc1	-10	-10	/	5	-5	4	/	-21
O=S(=O)(c1ccc(NC(=S)NCCc2ccccc2)cc1)N1CCOCC1	28	2	i	-2	-3	-2	-40	-24
CCCS(=O)(=O)N1CCC(C(=O)NCCc2ccc(C)cc2)CC1	-2	0	i	-9	7	1	/	/
CCCn1nnc(NC(=O)c2ccc(-c3cc(Cl)ccc3Cl)o2)n1	3	-14	i	1	-2	-3	-9	/
COc1ccc(Br)cc1S(=O)(=O)N1CCN=C1C	0	0	i	-8	5	5	/	-11
C/C=C/c1ccc2c(c1)O[C@H](CN(C)C(=O)NC1CCCC1)[C@H](C)CN([C@H](C)CO)S2(=O)=O	/	/	/	/	2	3	28[16.7 µM]	3&9
O=C(Cn1cc2c(n1)CCCC2)NC1CCN(Cc2ccccc2)CC1	-2	-8	i	-1	1	3	4	3
Cc1ccc(C(=O)N(CC(=O)Nc2ccc(Cl)c(Cl)c2)Cc2ccco2)cc1	-2	5	i	-2	-3	3	-54	-14
O=C(CN(CC1CCCO1)C(=O)Cn1nnc(-c2ccc(F)cc2)n1)NC1CCCCC1 (centres undefined)	-7	9	i	8	7	-2	/	20
CCN1C(=O)[C@H]2[C@H]3CN=C(SCc4ccc(Cl)cc4)N3[C@@](CC)(C(=O)OC)[C@H]2C1=O	/	/	/	/	2	5	69*	-18
CCNC(=O)C1CCCN(C(=O)c2cccc(C(F)(F)F)c2)CC1 (centres undefined)	/	/	/	/	0	3	-1	0
CCOc1ccc(N2CC(C(=O)N/N=C/c3sccc3C)CC2=O)cc1 (centres undefined)	-12	-9	i	7	4	1	13	/
CS(=O)(=O)N(CC(=O)N/N=C/c1cccc2c1OCCO2)c1ccccc1Br	-10	0	i	3	-2	2	/	/
N/C(=N\OC(=O)COc1ccccc1)c1ccc(Cl)cc1	5	-16	i	6	3	6	-27	-2
CCOC(=O)CSc1nnc2cc(C)c3ccccc3n12	-3	-7	i	-2	5	4	/	-23
CCn1cc(C(=O)NCCCN2CCC(C)CC2)c2cc(OC)c(OC)cc2c1=O	-1	6	i	-8	1	1	-16	-14
CN(CCCC1CCCC1)C(=O)c1cc(COc2ccc(F)cc2F)on1	14	-10	i	8	2	-1	30	0
O=C1c2cccc3cccc(c23)C(=O)N1CCN1CCN(CC(O)COCc2ccc(Cl)cc2)CC1 (centres undefined)	82*	-1	i	5	4	-13	-70	/
CCOC(=O)c1c(NC(=O)Cn2nnc(-c3ccc(Cl)cc3)n2)sc(CC)c1C	8	-15	/	-4	4	1	/	/
[N-]=[N+]=CC(=O)c1ccnc(C(=O)C=[N+]=[N-])c1	-6	3	/	-5	4	9	/	-26
CCOc1ccccc1NC(=O)c1cnc2n(c1=O)CCS2	/	86	i	0	-5	-10	-112	-11	eIF4H FP inh retest=-2;PABP polyA inh retest=7
CCOCCCNC(=S)NCCCNc1nc2ccc(C)cc2cc1C#N	-15	-1	i	2	/	/	5	/
COc1ccc(N2CCN(C(=O)CSc3nnc(C4CC4)n3C3CC3)CC2)cc1	/	/	/	/	5	3	-21	-11
CCOC(=O)c1cc2oc(C(c3nnnn3C3CCCCC3)N3CCOCC3)cc2[nH]1 (centres undefined)	/	?	/	?	-2	-3	-37	6
Nc1ccc2ccc(O)cc2c1	/	/	/	/	9	3	-5	-17
COc1ccc(C(=O)N/C(=C\c2cn(S(=O)(=O)N(C)C)c3ccccc23)C(=O)N2CCOCC2)cc1	5	-10	i	6	-1	0	8	4
C=CCN(CC=C)C(=S)Nc1cc(Cl)ccc1OC	/	-2	i	38	-2	-3	-17	/
O=C(CSc1nnnn1-c1ccc(Cl)cc1)N1CCNC1=O	-19	/	/	/	2	-3	1	-8
Cn1c(CC(=O)Nc2ccccc2C(F)(F)F)c(Sc2ccccc2)c2ccccc21	-3	-3	i	6	-3	-6	-27	-21
c1ccc(CNc2nc(NCc3ccccc3)c3ccccc3n2)cc1	135*	-12	+	-19	-6	-19	/	-11
COc1cc(C(=O)N/C(=C\c2cn(S(=O)(=O)N(C)C)c3ccccc23)C(=O)NCCCO)cc(OC)c1OC	-7	-10	i	-2	2	2	2	/

By substructure, the compounds so far with an NH in an aromatic ring
SMILES	CSC inhib	eIF4H FP inh	Rce1 inhib	PABP polyA inh	MT1-MMP act inh	MT1-MMP act inh RFP	HIV Env fusion	UUG fidelity	others
CCCOc1ccc(F)cc1-c1cc(C(=O)NC2CCCCC2)[nH]n1	/	/	/	/	-4	-13	16	-36
CCCn1c(=O)[nH]c(=O)c2c1nc(-c1cccs1)n2CCOC	-11	16	i	-4	1	0	-4	-6
O=c1[nH]c2cc3c(cc2cc1CN(CCO)S(=O)(=O)c1ccccc1Cl)OCCO3	6	-4	i	6	6	3	/	-5
Cc1cc(C(=O)N/N=C/c2ccc(-c3ccc(C)c(Cl)c3)o2)n[nH]1	-2	0	i	-9	-1	-4	6	-15
CSCCC(NC(=O)c1ccco1)C(=O)NNC(=O)c1n[nH]c(=O)c2ccccc12 (centres undefined)	8	/	/	/	-4	-3	/	1
CCOC(=O)c1cc2oc(C(c3nnnn3C3CCCCC3)N3CCOCC3)cc2[nH]1 (centres undefined)	/	?	/	?	-2	-3	-37	6
